Screening results from PubChem BioAssay.
PrP UTR inh = inhibition of PrP 5' UTR reporter expression; inhibition, % (test concentration not listed); cell-based PrP 5' UTR mRNA reporter, plate reader; 0.35% of 340,000 active; AID 488862;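 active means every replicate at 50% or more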;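 further: 0 = median of the neutral control wells; tested in H4 reporter cells; numbers are from one replicate; inactives centre near -14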
Mtb hypoxia rep = Mtb hypoxia fluorescent reporter inhibition; fluorescence inhibition, % (test concentration not listed); 0.1% of 300,000 active; M. tuberculosis hypoxia-regulated fluorescent reporter, fluorescence;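 active means 35 to 45% if threefold the growth effect, above 45% if 1.5-fold the growth effect; inactive means the rest, general growth blockers included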;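 further: wells of about 50 µL received 100 nL stock; 0% = vehicle wells and 100% = reference inhibitor wells; whole bacteria with a GFP reporter of the hypoxia response; strong numbers were not always called active; many hits fall short of the cut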
Bead autofluor = flagged as autofluorescent in microsphere protease counterscreen; compound autofluorescence counterscreen, microsphere flow cytometry; active compounds read high; fluorescence intensity (concentration not given with the values); 3.1% of 360,000 active; AID 624483;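 active means at least 3 SD above the mean of all compounds, about 16000 in these data; inconclusive means too few beads counted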;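 further: 100 nL of 1 mM stock went into each well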
Sa ugtP lethal = growth inhibition of S. aureus ugtP deletion strain. S. aureus RN4220 ugtP deletion, OD600 growth, 16 h; some inactives read as strong as hits. growth inhibition, % (concentration not given with the values). 0.54% of 330,000 active;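 active means z-score under -3 and OD600 up to 0.15 on both plates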;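 further: plate controls were untreated wells for no effect and antibiotic for full effect; wells of about 80 µL received 100 nL stock; the first replicate is given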
Sa RN4220 lethal = kills Staphylococcus aureus RN4220; S. aureus RN4220 growth, OD600, 16 h; 0.33% of 330,000 active; inhibition, % (test concentration not listed); AID 1259311;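 active means z-score of -3 or lower and OD600 up to 0.18 on both plates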;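 further: plate controls were untreated cells for no effect and reference antibiotic for full effect; stock transfer was 100 nL into about 80 µL; one replicate is shown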
BJeLR lethal = BJeLR cell viability loss; BJeLR (HRASV12) viability, CellTiter-Glo ATP luminescence, 48 h; reference of the scale not given here; inhibition, % (no concentration beside the values); 0.17% of 300,000 active;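 active means replicate mean above 50%; inconclusive means above 50% but judged a plate artefact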;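 further: 50 nL library stock added to about 25 µL; numbers are from one replicate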
Mtb hypoxia rep growth = recorded beside Mtb hypoxia rep, whose call it bears; growth inhibition, %; measured here: M. tuberculosis growth (absorbance);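 0% = vehicle and 100% = reference antibiotic; read after six days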
Numbers without * were called inactive; ? = inconclusive; . = not tested or not shown.

Compound | Sa ugtP lethal | BJeLR lethal | Mtb hypoxia rep | Mtb hypoxia rep growth | Bead autofluor | PrP UTR inh | Sa RN4220 lethal
O=C(NCC1CCCO1)c1nn2c(c1Cl)NC(c1ccc(F)cc1)CC2C(F)(F)F (centres undefined) | 0 | . | 3 | 2 | 6915 | 5 | 3.0
CNC(=O)C1=NCCCc2cc(OC)c(OC)cc21 | 3 | -7 | 7 | 6 | 20275* | 12 | 3.3
O=C(N/N=C/c1cc(Br)c(O)c(Br)c1)c1cccnc1 | . | -3 | . | . | 3879 | -22 | .
CC1CCCC(NC(=O)C2CCN(S(=O)(=O)c3cccc4nonc34)CC2)C1C (centres undefined) | 6 | -10 | 15 | 2 | 4129 | -6 | 6.7
Cc1ccc2oc(=O)n(CC(=O)N3CCOCC3)c2c1 | -6 | 8 | 0 | 4 | 3606 | -27 | -3.5
COC/C=C/C1=CC2=CC(=O)C(C)(OC(=O)c3cnc4ccccc4n3)C(=O)C2=CN1CC1CC1 (centres undefined) | . | 3 | . | . | 3240 | -8 | .
COc1cc2c(cc1NC(=O)COC(=O)c1ccccc1)oc1ccccc12 | 6 | 10 | -9 | -4 | . | . | -1.7
COC(=O)c1ccccc1NC(=O)C(C)n1nc(C)c2c(C)n(-c3ccccc3)nc2c1=O (centres undefined) | 4 | -12 | 3 | -5 | 5201 | 0 | -6.6
Cc1ccc(NS(=O)(=O)c2cccc(C(=O)Nc3cc(C)on3)c2)cc1 | 5 | 6 | 3 | 13 | 2520 | -16 | 1.3
CCCN1CCC(CCOc2ccccc2)(C(=O)OCC)CC1 | 4 | 16 | -2 | 11 | 4472 | -6 | 1.7
COc1ccc(CCNC(=O)COc2ccc(S(=O)(=O)NCC(C)C)cc2Cl)cc1OC | 2 | 0 | -2 | 3 | 2146 | -9 | 2.1
O=C(c1ccccc1-c1ncc[nH]1)N1CCc2c([nH]c3ccccc23)C1c1ccccn1 (centres undefined) | -8 | -9 | 8 | 1 | 4786 | -18 | 1.9
CC(NCc1ccc(S(N)(=O)=O)cc1)C(=O)N1CCc2ccccc21 (centres undefined) | 2 | 3 | 11 | 11 | 5525 | -12 | 1.6
COc1ccc(C(=O)Nc2ccc3cn[nH]c3c2)c(OC)c1 | -1 | 8 | 8 | -1 | 3706 | -13 | 7.0
COc1ccc(N2CCN(S(=O)(=O)c3c(C)n(C)c(=O)n(C)c3=O)CC2)cc1 | -3 | -16 | 15 | 5 | 5270 | -22 | 5.2
O=C(O)c1[nH]c2ccccc2c1C(c1cc(Cl)cc([N+](=O)[O-])c1O)c1c(C(=O)O)[nH]c2ccccc12 | -6 | 12 | 4 | -15 | 3841 | -66 | 26
CCOC(=O)c1c(NC(=O)C2CC(Cl)=CCC2C(=O)O)sc2c1CC(C)(C)OC2 (centres undefined) | 7 | -6 | 6 | 0 | 4801 | -6 | 6.8
O=[N+]([O-])c1ccc(S(=O)(=O)Nc2nc3ccccc3nc2Nc2ccccc2)cc1 | . | 0 | . | . | 4674 | -18 | .
CCC1CCCCN1C(=O)c1ccc(OC2CCN(Cc3ccccn3)CC2)cc1 (centres undefined) | 2 | 3 | 11 | 5 | 6416 | -24 | 3.0
CN(C)CCCn1c2c(c(SCC(=O)Nc3cccc4ccccc34)nc1=O)CCCC2 | 3 | -4 | 5 | 3 | 5350 | -1 | 2.3
Cc1ccc(NC(=O)CC2(CC(=O)O)CCCC2)cc1 | 0 | 0 | 13 | 6 | 4216 | -13 | 3.0
COCCn1c(COC)nc2ccccc21 | 12 | 5 | . | . | 3555 | -7 | -0.8
CC(C)(CSc1ccccn1)NS(=O)(=O)c1ccccc1 | 9 | -2 | 13 | 11 | 2433 | -4 | 7.8
CCN(CC)S(=O)(=O)c1cccc(C(=O)Nc2ccc3c(c2)OCO3)c1 | 10 | 9 | 3 | 7 | 4116 | -33 | 11

Entries of single compounds from above. Screens in order: Sa ugtP lethal, BJeLR lethal, Mtb hypoxia rep, Mtb hypoxia rep growth, Bead autofluor, PrP UTR inh, Sa RN4220 lethal
O=C(O)c1[nH]c2ccccc2c1C(c1cc(Cl)cc([N+](=O)[O-])c1O)c1c(C(=O)O)[nH]c2ccccc12 is listed with -6, 12, 4, -15, 3841, -66, 26
COc1ccc(C(=O)Nc2ccc3cn[nH]c3c2)c(OC)c1 is listed with -1, 8, 8, -1, 3706, -13, 7.0

The listing picks up, repeating the 2 entries before the break.
Compound | Sa ugtP lethal | BJeLR lethal | Mtb hypoxia rep | Mtb hypoxia rep growth | Bead autofluor | PrP UTR inh | Sa RN4220 lethal
CC(C)(CSc1ccccn1)NS(=O)(=O)c1ccccc1 | 9 | -2 | 13 | 11 | 2433 | -4 | 7.8
CCN(CC)S(=O)(=O)c1cccc(C(=O)Nc2ccc3c(c2)OCO3)c1 | 10 | 9 | 3 | 7 | 4116 | -33 | 11
COC(=O)c1ccc(NC(=O)CN2CCN(c3ccc(Cl)cc3)CC2)cc1 | 1 | 7 | . | . | 2770 | -15 | -3.0
COc1ccc(CNC(=O)Cc2cn(C)c3ccccc23)c(OC)c1 | -5 | -12 | 16 | 20 | 3329 | -22 | 0.9
O=C(Nc1cccc(S(=O)(=O)N2CCCCC2)c1)c1c2c(nc3ccccc13)CCN(Cc1ccccc1)C2 | -29 | -2 | -6 | 0 | 2655 | -11 | -1.0
Cc1nc2cc(C(=O)N3CCc4ccccc43)ccc2n1-c1ccc(F)c(F)c1 | 12 | -1 | -2 | -3 | 2582 | -12 | -9.6
O=[N+]([O-])c1cnn(-c2nc(-c3ccco3)cc(C(F)(F)F)n2)c1 | 7 | 5 | -13 | 2 | 4750 | -20 | 3.4
Cn1c(N2CCNCC2)nc2ccccc21 | 3 | 0 | 15 | 7 | 19898* | -40 | 0.5
O=C(Nc1ccc(F)c(F)c1)C1CCN(S(=O)(=O)c2cccs2)CC1 | -5 | . | 4 | -3 | 4708 | -12 | -3.3
CC1CCCN(C(=O)CSc2n[nH]c(-c3cccs3)n2)C1 (centres undefined) | 5 | -5 | 7 | 6 | ? | -14 | 2.0
CCCCN(C(=O)C(C)N1C(=O)c2ccccc2C1=O)c1c(N)n(CCCC)c(=O)[nH]c1=O (centres undefined) | 7 | . | -3 | -4 | ? | -20 | 3.6
O=C1N/C(=N\N=C\c2cccs2)SC1Cc1cccc(Cl)c1 (centres undefined) | . | 3 | . | . | 2453 | -29 | .
O=C(COC(=O)CCNS(=O)(=O)c1cccc(C(F)(F)F)c1)NC(=O)NC1CCCCC1 | -9 | -16 | -5 | 12 | 4273 | 0 | -1.5
Cc1cc(S(=O)(=O)N2CCCC(C(=O)Nc3ccc(C(=O)O)cc3)C2)ccc1Cl (centres undefined) | 7 | 8 | 13 | 8 | 2527 | -3 | 6.1
COc1ccc(C(=O)Nc2ccc3c(c2)C(=O)NC3=O)cc1 | 11 | -6 | 3 | -6 | 4424 | -20 | -0.3
C=CCN(CC=C)S(=O)(=O)c1ccc(C(=O)Nc2sc3c(c2C(N)=O)CCCCC3)cc1 | 4 | 3 | 4 | 6 | 7341 | -4 | 1.4
Cc1cc(NC(=O)CSCC(=O)Nc2nc3ccccc3s2)no1 | -3 | . | 1 | -4 | 3890 | -12 | 4.9
NC(=O)C1CCN(C(=O)Cc2ccsc2)CC1 | -5 | 2 | -4 | 10 | 5700 | -6 | -3.3
O=C(NCCCN1CCCC1=O)c1ccc(S(=O)(=O)Nc2ccccc2)cc1 | 2 | 5 | 2 | 3 | 5421 | -7 | 1.2
COCCCNC(=O)CN(c1ccc(F)cc1)S(=O)(=O)c1ccc2c(c1)OCCO2 | 1 | 8 | 18 | 0 | 3574 | -25 | 5.5
CCOC(=O)c1ccccc1NC(=O)CN(c1cccc(OC)c1)S(C)(=O)=O | -12 | -5 | 16 | 8 | 3752 | -10 | 3.0
COc1ccc(Br)cc1S(=O)(=O)Nc1ncccc1C | 4 | -13 | 6 | 16 | 4664 | -14 | 6.6
COc1ccc(OCC(=O)N2CCN(C(=O)c3ccccc3)CC2)cc1 | -1 | 2 | . | . | 2863 | 4 | -1.1
COC(=O)c1ccc(NC(=O)c2cccc(OC)c2)cc1 | 7 | 5 | . | . | 4344 | -79 | 9.9
COc1ccc(NC(=O)CN(C)C2=NS(=O)(=O)c3ccccc32)cc1Cl | -2 | . | 6 | 8 | 4042 | -13 | -0.7
O=C(NNS(=O)(=O)c1ccc(F)cc1)c1ccc([N+](=O)[O-])cc1 | 2 | 0 | 9 | -1 | 3746 | -3 | 4.5
COc1ccc2oc(C(=O)N3CCN(C(c4ccccc4)c4ccccc4)CC3)c(C)c2c1 | 45 | -3 | -1 | -3 | 3944 | -10 | -12
CC1(C)C(=O)N(c2ccccc2Cl)C(=O)c2ccccc21 | 10 | -7 | 4 | 1 | 4365 | -2 | -2.7
O=C1CN(C(=O)COC(=O)c2cccc(OCc3ccccc3)c2)c2ccccc2N1 | 11 | 2 | 4 | 9 | 2526 | -20 | -1.2
Nc1ccccc1-c1nnn(CC(=O)N2CCCc3ccccc32)n1 | -2 | -4 | 7 | 4 | 9079 | -3 | 3.5
CC(NCCC1(C(C)C)CCOC(C)(C)C1)c1cccs1 (centres undefined) | 10 | 7 | 3 | 11 | 3751 | -23 | 3.1
COc1ccc(/C=C/C(=O)OCC(=O)c2ccc(S(=O)(=O)N3CCCCC3)cc2)cc1OC | 6 | -1 | 7 | -7 | ? | -25 | 3.8
COc1cccc2c1OCC(CN1CCN(CCC(C)C)C(CCO)C1)=C2 (centres undefined) | 5 | -9 | 6 | 3 | 4328 | 2 | 14
CCn1c(COc2ccc(Cl)cc2)nnc1SCC(=O)Nc1ccc2c(c1)OCO2 | 0 | 5 | . | . | 2740 | -119 | -4.6

4 entries from above, set out differently.
CC(NCCC1(C(C)C)CCOC(C)(C)C1)c1cccs1 (centres undefined)
  Sa ugtP lethal: 10
  BJeLR lethal: 7
  Mtb hypoxia rep: 3
  Mtb hypoxia rep growth: 11
  Bead autofluor: 3751
  PrP UTR inh: -23
  Sa RN4220 lethal: 3.1
COc1ccc(/C=C/C(=O)OCC(=O)c2ccc(S(=O)(=O)N3CCCCC3)cc2)cc1OC
  Sa ugtP lethal: 6
  BJeLR lethal: -1
  Mtb hypoxia rep: 7
  Mtb hypoxia rep growth: -7
  Bead autofluor: ?
  PrP UTR inh: -25
  Sa RN4220 lethal: 3.8
COc1cccc2c1OCC(CN1CCN(CCC(C)C)C(CCO)C1)=C2 (centres undefined)
  Sa ugtP lethal: 5
  BJeLR lethal: -9
  Mtb hypoxia rep: 6
  Mtb hypoxia rep growth: 3
  Bead autofluor: 4328
  PrP UTR inh: 2
  Sa RN4220 lethal: 14
CCn1c(COc2ccc(Cl)cc2)nnc1SCC(=O)Nc1ccc2c(c1)OCO2
  Sa ugtP lethal: 0
  BJeLR lethal: 5
  Mtb hypoxia rep: .
  Mtb hypoxia rep growth: .
  Bead autofluor: 2740
  PrP UTR inh: -119
  Sa RN4220 lethal: -4.6

More compounds
Compound | Sa ugtP lethal | BJeLR lethal | Mtb hypoxia rep | Mtb hypoxia rep growth | Bead autofluor | PrP UTR inh | Sa RN4220 lethal
COC(=O)c1cn[nH]c1N | -4 | . | . | . | 4308 | -11 | -7.1
CCc1ccc(C(=O)COC(=O)C(Cc2ccccc2)NC(=O)c2ccc(Cl)cc2)cc1 (centres undefined) | -3 | -2 | 3 | 3 | 4084 | -19 | 16
Cc1ccc(S(=O)(=O)N(C)C[C@@H]2Oc3ccc(NC(=O)Cn4cnnn4)cc3C(=O)N([C@@H](C)CO)C[C@H]2C)cc1 | -11 | . | 0 | 13 | 5337 | -18 | -13
Cc1cccc(NC(=O)Nc2ccc3c(c2)N(C)C(=O)CS3)n1 | 4 | 3 | 5 | 13 | 5999 | -74 | 6.8
O=C(O)COc1ccc2c(c1)O/C(=C\c1cccs1)C2=O | 6 | -2 | 1 | 1 | 4209 | 10 | 6.8
CO[C@H]1O[C@H](C)[C@@H](O)C[C@H]1NC(=O)OCc1ccccc1 | 1 | 0 | -1 | 0 | 4198 | -25 | 1.4
Cc1[nH]n(-c2ccc([N+](=O)[O-])cc2)c(=O)c1C=NCC1CCCO1 (centres undefined) | 0 | 18 | -10 | -1 | 3267 | -46 | 3.5
Cc1ccc2c(C)c(C(=O)N3CCN(c4cnccn4)CC3)oc2c1C | 1 | -1 | 0 | 13 | 5561 | -18 | 5.1
CC(C)=C1C2C=CC1C1C(=O)N(c3ccc4c(c3)OCO4)C(=O)C21 (centres undefined) | 6 | -2 | 3 | -1 | 4880 | 6 | 3.4

The order is random; overall some 4% were active at least once.
